CtBP-E1A blk – CtBP/E1A binding inhibition; AlphaScreen GST-E1A/His-CtBP binding, 1536-well; hits give low values; control for the full effect not named in the record; AID 651724; hit rate 0.49% among 340,000; activity change, % (no concentration beside the values); in the data active means activity change below about -65%; inconclusive means about -30% to -65%; inactive means above about -30%; note: % is set by controls: 0 for no effect and ±100 for the full control effect; compound concentration not given in the record
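In 5 uL wells, 23 nL compound meets equimolar GST-E1A and His-CtBP (5X stock 125 nM each) for 2 h, 37 °C. Beads (5X, 50 ug/mL) then 1 h, 37 °C, dark.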
gsp ag – agonists of gsp mutant (McCune-Albright syndrome); hit rate 0.13% among 340,000; Potency, µM (doses to about 76.9 µM), without a hit: top-dose activation (cAMP increase), most hits filed as activators; gsp mutant cells, cAMP HTRF, 30 min; control for the full effect not named in the record; AID 624287; active = well fitted activation curve with a large enough effect; inconclusive = small, poorly fitted or top-dose-only effect, or another doubt; inactive = no such curve, though single readings can be large or run the other way; cell line not stated here;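 note: phosphodiesterase inhibitor Ro 20-1724 added with compounds to block cAMP breakdown; potency is the fitted concentration of half-maximal effect; nearly all actives have a fitted effect of over 60% in size; about a fifth of the inactives were tested at one dose only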
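Cells in DMEM/10% FBS with G418 were pretreated with compounds in DMSO plus […] (300 uM stock) for 30 min at 37C. cAMP was measured by HTRF (cAMP-d2 plus anti-cAMP antibody-K) after 30 min at room temperature.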
ClpP mod – qHTS Assay for Activators of ClpP; ATP-dependent Clp protease proteolytic subunit (Bacillus subtilis (strain 168)), P80244; purified B. subtilis ClpP, FRET peptide cleavage, 20 min; Potency, µM (titrated, usually from 57.5 µM), inactives show at the highest dose activity change, negative = active; hit rate 1.9% among 340,000; AID 651965, 2013; active = well fitted falling curve with a large enough effect; inconclusive = small, poorly fitted or top-dose-only effect; inactive = no such curve, though single readings can be large or run the other way; note: potency is the fitted concentration of half-maximal effect; the source files actives as falling curves though it sought activators and does not explain the sign; nearly all actives have a fitted effect of over 65% in size; many hits overshoot -100%
Target sequence (P80244 whole entry, looked up): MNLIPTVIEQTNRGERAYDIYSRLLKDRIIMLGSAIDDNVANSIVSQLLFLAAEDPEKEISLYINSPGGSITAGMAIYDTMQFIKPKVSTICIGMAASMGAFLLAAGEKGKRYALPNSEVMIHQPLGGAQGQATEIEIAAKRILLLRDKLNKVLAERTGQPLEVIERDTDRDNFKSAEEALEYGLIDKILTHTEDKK
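FRET quenching reversal measured ClpP activation: 10 microg/mL B. subtilis ClpP at pH 8 with the FRET-FV decapeptide, read at 430 nm after 320 nm excitation. The 20-min minus 0-min signal was scaled between DMSO/no-enzyme wells and ADEP (5.8 microM final).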
TRPV1 PAM – enhances activation of the human vanilloid receptor TRPV1; hit rate 0.02% among 320,000; TRPV1-expressing cells, Fluo-8 calcium influx, capsaicin EC20 potentiation; host cell line not named in the record; control for the full effect not named in the record; potentiation, % at 8.33 µM; active means potentiation above 80%; inconclusive means 30% to 80%; inactive means below 30%; note: 0% is about no effect
Target sequence (Q8NER1 whole entry, looked up): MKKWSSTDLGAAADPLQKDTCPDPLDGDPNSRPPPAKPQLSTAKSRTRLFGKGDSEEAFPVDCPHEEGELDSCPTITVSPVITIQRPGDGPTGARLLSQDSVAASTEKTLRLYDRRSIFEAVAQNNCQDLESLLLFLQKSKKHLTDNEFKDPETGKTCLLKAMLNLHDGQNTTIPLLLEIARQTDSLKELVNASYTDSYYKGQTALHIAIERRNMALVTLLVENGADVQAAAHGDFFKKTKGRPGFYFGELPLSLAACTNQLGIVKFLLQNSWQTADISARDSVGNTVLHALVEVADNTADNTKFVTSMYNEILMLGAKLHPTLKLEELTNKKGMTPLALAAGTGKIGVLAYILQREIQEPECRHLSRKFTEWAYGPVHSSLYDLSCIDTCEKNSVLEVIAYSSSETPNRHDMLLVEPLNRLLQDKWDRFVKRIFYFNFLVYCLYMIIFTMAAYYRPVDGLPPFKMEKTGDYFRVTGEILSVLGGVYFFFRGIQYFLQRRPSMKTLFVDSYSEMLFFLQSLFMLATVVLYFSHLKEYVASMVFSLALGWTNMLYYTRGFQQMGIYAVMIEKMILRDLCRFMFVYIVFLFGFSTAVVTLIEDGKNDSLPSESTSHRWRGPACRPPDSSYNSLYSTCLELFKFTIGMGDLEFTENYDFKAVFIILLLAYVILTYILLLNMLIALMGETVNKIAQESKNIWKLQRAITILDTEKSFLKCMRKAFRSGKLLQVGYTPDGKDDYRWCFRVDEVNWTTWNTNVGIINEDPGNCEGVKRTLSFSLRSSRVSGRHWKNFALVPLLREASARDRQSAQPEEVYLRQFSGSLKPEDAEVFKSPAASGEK
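Cells expressing TRPV1 were dye-loaded with Fluo-8 and read kinetically: 10 s baseline, 3 min after compound (agonist portion), then 2 min after EC20 capsaicin (allosteric enhancer portion). Calcium-bound dye fluorescence at 480/520 nm.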
Sfp PPTase inh – Sfp phosphopantetheinyl transferase inhibition | Potency, µM, for inactives: max response, negative = inhibition, hits mostly inhibitors | AID 1490 | Q9F4F7 | Biochemical Sfp PPTase activity, qHTS | hit rate 3.5% among 310,000; active = well fitted inhibition curve with a large enough effect; inconclusive = small, poorly fitted or top-dose-only effect, or another doubt; inactive = no such curve, though single readings can be large or run the other way;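 note: the enzyme is Sfp with the accession as filed and its product quenches rhodamine fluorescence; potency is the fitted concentration of half-maximal effect; 0% = enzyme reaction without inhibitor and -100% = no enzyme wells; top concentration of the series not given in the record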
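Sfp 15 nM + cpd, 15 min RT; start w/ rhodamine-CoA 5 uM, BHQ-2-YbbR 12.5 uM (final); 50 mM Hepes pH 7.6, 10 mM MgCl2, 0.01% NP-40, 0.01% BSA; read 525/598 nm at 0 and 30 min.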
Menin-MLL FL inh – menin-MLL binding inhibition, fluorescein peptide. 290,000 tested, under 10 active. FP activity change, % at 61.4 µM. Fluorescence polarization, fluorescein-MLL peptide displacement from menin; inconclusive = falling polarisation curve, or a change in total fluorescence; inactive = total fluorescence flat and polarisation flat or rising; no compound was filed as active; the % refers to the polarisation; negative = inhibition;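 note: % of control where 0% means no effect; inhibitors lower the polarisation; unlabelled MLL peptide was the positive control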
gsp antagonist – antagonists of gsp mutant (McCune-Albright syndrome) | gsp-mutant cells, cAMP HTRF, 30 min; control for the full effect not named in the record | Potency, µM (titrated, usually from 76.9 µM), inactives show top-dose activity change, negative = inhibition, actives largely listed as inhibitors | hit rate 0.4% among 340,000 | AID 624288; active = falling curve of any shape with a large fitted effect; inconclusive = falling curve, mostly with a smaller effect; inactive = flat or rising curve; cell line not stated here;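 note: intracellular cAMP measured with PDE inhibitor Ro 20-1724 present during compound exposure; potency is the fitted concentration of half-maximal effect; % is set by controls: 0 for no effect and ±100 for the full control effect; nearly all actives have a fitted effect of over 65% in size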
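Cells in G418 medium, seeded 16-24 h, 37C; buffer exchange to DPBS + 1 mM CaCl2, 0.5 mM MgCl2, 0.05% BSA; cpds in DMSO + […] (300 uM stock), 30 min 37C; HTRF cAMP detection.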
An asterisk follows results filed as active; ? = inconclusive; . = not tested or not shown; & = joins results of further samples; [ ] = remark or other dose.

Every second line gives: CtBP-E1A blk | gsp ag | ClpP mod | TRPV1 PAM | Sfp PPTase inh | Menin-MLL FL inh | gsp antagonist
O=C(COc1ccccc1Cl)NCCNC(=O)c1ccco1
    7 | 15% | . | -1 | -1% | -0.6 | 1%
COC(=O)NNC(=O)/C=C/c1ccccc1
    4 | -62%[inhibitor] | 1.8% | -10 | 29% | . | 3%
CCOC(=O)c1cc(CC)sc1NC(=O)COC
    6 | 3% | -7.6% | 0 | ? | 3.3 | -9%
C/C(=N\NC(=O)c1c(-c2ccccc2Cl)noc1C)c1cccc(NC(=O)C(C)C)c1
    2 | -21% | 0.7% | 0 | -3% | -1.8 | -7%
C=CCNC(=O)/C(C#N)=C\c1cc(Cl)c(OCC)c(OC)c1
    4 | 20% | -7.6% | -10 | -12% | -0.5 | -2%
CCCC(=O)Nc1c(-c2ccccc2Cl)c(=O)c2ccccc2n1C
    7 | -34%[inhibitor] | -15% | -1 | 9% | 3.7 | -20%
Cc1ccc(OC(=O)CCC(=O)Nc2ccc(C)c(C)c2)cc1
    8 | 4%[15.4 µM] | . | . | . | . | 5%
CCOc1cc(C(C(=O)NCC2CCCO2)N(C(=O)Cn2nnc3ccccc32)c2ccccc2C(C)=O)ccc1O (centres undefined)
    -10 | -7%[15.4 µM] | 0.2% | -2 | 23% | -1.6 | -15%
Cn1c(N)c(C(=O)COC(=O)C(Cc2ccccc2)NC(=O)c2ccccc2)c(=O)n(C)c1=O (centres undefined)
    -1 | 7%[15.4 µM] | -0.1% | 4 | 12% | -5.5 | 1%
O=C(c1cc2c(=O)n3ccccc3nc2s1)N1CCN(Cc2ccccc2)CC1
    -4 | ? | . | 25 | 14% | -5.9 | 0%
Cc1cc(N2CCOCC2)n2cc(-c3ccc(F)cc3)nc2n1
    0 | ? | . | 1 | 5% | 2.3 | -3%
O=C1NC(=S)N(C(=O)c2ccc(F)cc2)/C1=C/c1cccnc1
    -1 | -4%[15.4 µM] | -11% | -3 | 2% | 15 | ?
Cc1ccc(OCC(=O)Nc2ccccc2-c2ccccc2NC(=O)COc2ccc(C)cc2)cc1
    -9 | -10% | -1.6% | 11 | 6% | 0.7 | 1%
COc1ccc(NC(=O)c2ccc[n+]([O-])c2)cc1
    0 | ? | -2.0% | 1 | 10% | -2.3 | 9%
CCn1c(SCC(=O)Nc2ccc(N3CCOCC3)cc2)nnc1-c1ccncc1
    9 | 3% | . | 4 | 10% | . | -5%
CCO[C@H]1OC(C(=O)NCc2ccccc2)=C[C@@H](c2coc3ccccc3c2=O)[C@@H]1CCCO
    1 | . | 2.0% | -9 | -1% | 0.2 | -3%
Cc1ccccc1NC(=O)CC1C(=O)Nc2ccccc2N1CC(=O)N(C)C1CCS(=O)(=O)C1 (centres undefined)
    1 | -1% | -27% | 14 | . | . | -4%
CC1CN(c2ccc([N+](=O)[O-])c(NCCOc3ccccc3)c2)CCN1 (centres undefined)
    -25 | -10% | . | 1 | -1% | 2.2 | -2%
CN1C(=O)C(/C(N)=N/NC(=O)c2ccccc2)C2CC1(C)Oc1ccccc12 (centres undefined)
    -10 | 6% | -0.8% | -13 | -13% | -6.6 | 5%
CN1CCN(CCCNC(=O)Nc2cccc3ccccc23)CC1
    5 | 6% | 16µM* | 8 | 4% | 3.2 | 17%
Cc1ccc(S(=O)(=O)N2CCCCC2)cc1C(=O)OC1CCCCC1=O (centres undefined)
    10 | -51%[inhibitor] | 1.3% | 6 | . | . | -10%
O=C(NCC1(c2ccccc2)CCCC1)c1ccco1
    2 | 26% | . | -6 | 6% | 1.5 | -2%
CCOC(=O)C1C(=O)NC(c2ccccc2)=NC1c1ccccc1 (centres undefined)
    -3 | -36%[inhibitor] | -3.1% | 12 | 8% | 1.9 | -13%[15.4 µM]
O=C1NC(Cc2ccc(O)cc2)c2nc3ccc(Br)cc3c(=O)n2-c2ncccc21 (centres undefined)
    -2 | 15% | -7.8% | . | . | . | .
Cc1c(NC(=O)CN2CCN(c3ccc([N+](=O)[O-])cc3)CC2)c(=O)n(-c2ccccc2)n1C
    -3 | 3%[15.4 µM] | . | -2 | 11% | 3.1 | -5%
CC(=O)Nc1ccc(Oc2ccc(NC(C)=O)c(NC(C)=O)c2)cc1
    . | -43%[inhibitor] | -0.8% | -3 | 11% | 5.3 | 2%
COc1ccc(NC(=O)c2oc3ccccc3c2NC(=O)C2CCCO2)cc1OC (centres undefined)
    0 | -3%[15.4 µM] | 1.4% | 10 | -25% | -0.4 | -4%
COC(=O)c1ccccc1-n1cccc1C(=O)NP(=O)(N1CCOCC1)N1CCOCC1
    -3 | 4%[15.4 µM] | . | -3 | -4% | -3.1 | 13%
C/C(=N\N=C(N)N)c1ccc(C)c(C)c1
    -10 | -33%[inhibitor] | 0.4% | 8 | -4% | -0.6 | 11%
CCOC(=O)C1CCCN(C(=O)COC(=O)c2ccc(C#N)cc2)C1 (centres undefined)
    -1 | 6%[15.4 µM] | . | -7 | -5% | 9.5 | 3%
CCOC(=O)C(C)Oc1ccc(OCc2ccccc2)cc1 (centres undefined)
    6 | 7%[15.4 µM] | . | 2 | 10% | -0.3 | -2%
Cc1ccc2c([N+](=O)[O-])c(C)ccc2n1
    5 | 10% | 5.7% | 5 | 3% | 3.6 | 7%
Clc1ccc(-c2cnnc(-c3ccccn3)n2)cc1
    -84* | 27% | 0.6% | . | . | . | -8%
CC(C)(C)c1ccc(COC(=O)Nc2ccc(F)cc2)cc1
    ? | -11% | 0.6% | 1 | 14% | -5.8 | 18%
CC(=O)Nc1cccc(/C(C)=N/NC(=O)c2ccc(Cl)cc2Cl)c1
    -6 | -45%[inhibitor] | 1.2% | 7 | 12% | 0.0 | -2%
CCC(CC)c1nnc(NC(=O)C2CC(=O)N(c3ccc4c(c3)OCCO4)C2)s1 (centres undefined)
    0 | -5% | 0.9% | -1 | 13% | 5.5 | -25%
CCOC(=O)CNC(=O)N1CCCC(C(=O)c2ccccc2SC)C1 (centres undefined)
    . | -31%[inhibitor] | 0.4% | 10 | 6% | -6.3 | 12%
COC(=O)c1cccc(C(=O)Nc2ccc(C)cc2Br)n1
    -17 | 1% | -9.0% | -1 | 11% | 0.3 | -18%
CCn1c(C(O)c2cc(OC)c(OC)c(OC)c2)nc2ccccc21 (centres undefined)
    4 | 20%[15.4 µM] | -1.7% | -8 | 12% | -1.5 | -11%
Cc1cc(C)n2ncc(C(=O)Nc3cccc(O)c3)c2n1
    -14 | -7% | . | -8 | -10% | 4.7 | 5%
COc1ccc(O)c(C(=O)c2cnc3nc4ccccc4n3c2)c1
    -14 | ? | 28µM* | 9 | -5% | ? | -1%
O=C(Cc1ccccc1)NC(=S)Nc1ccc2oc(-c3ccccc3)nc2c1
    . | . | . | -22 | 10% | 5.3 | .
CN(C)c1nc2ccc(OCCN3CCCCC3)cc2s1
    5 | 12% | -0.5% | -22 | 11% | 2.2 | -2%
O=C(Cc1ccccc1)NCC(=O)N1CCCCC1
    -2 | 1%[15.4 µM] | -3.0% | 13 | -9% | -2.0 | 10%
Cc1ccc(C)c(N2CCN(C(=O)c3cc4ccccn4n3)CC2)c1
    2 | -39%[inhibitor] | -1.0% | -15 | -14% | -3.5 | -16%
Cn1c(SCC(=O)NCCc2ccc(S(N)(=O)=O)cc2)nc2ccccc2c1=O
    -6 | -15%[15.4 µM] | -1.2% | -9 | 8% | 5.2 | 3%
CCOC(=O)C1CCN(c2nc(-c3ccc(Br)cc3)nc3ccccc23)CC1
    14 | 0%[15.4 µM] | -0.6% | 0 | -11% | -0.8 | 3%
CC(C)C(=O)Nc1ccc(C(=O)N2CCCCCC2)cc1
    1 | ? | 0.2% | 1 | 10% | 0.8 | 7%
Cn1c(SCC(=O)Nc2ccccc2Br)nnc1-c1cnccn1
    2 | ? | -2.4% | ? | 13% | . | 1%
CCOC(=O)c1ccc(Nc2nc(C(=O)OCC)nc3ccccc23)cc1
    -90* | -5% | 182%&-17% | 1 | -9% | 0.7 | -2%
COc1ccc(OC)c(C2C(C(=O)c3ccccc3)=C(C)Nc3nc4ccccc4n32)c1 (centres undefined)
    -3 | ? | -3.5% | 6 | 12% | 0.2 | -2%
O=C(Nc1ccc2nccnc2c1)Nc1ccccc1Cl
    -9 | ? | . | 24 | ? | -18 | 3%
COc1ccc(Cl)c(OC)c1C(=O)NC(=O)Nc1c(F)cc(F)cc1F
    -7 | 2%[15.4 µM] | . | -24 | 9% | 1.6 | -2%
O=C(Nc1cc(S(=O)(=O)N2CCOCC2)ccc1N1CCCCC1)c1ccccc1
    -3 | ? | -2.0% | -13 | . | . | -18%
CCN(CC)S(=O)(=O)c1ccc(Oc2ccccc2)cc1
    25 | ? | -2.5% | -6 | -4% | -0.1 | -8%
O=C1NCC(Nc2ccccc2)C(=O)N1 (centres undefined)
    9 | 0% | 13µM* | . | . | . | -9%
COc1cc(-c2nnc(NC(=O)CS(=O)(=O)c3ccc(Cl)cc3)o2)cc(OC)c1OC
    -21 | -40%[inhibitor] | -7.7% | . | . | . | .
Cc1ccc(C)c(NC(=O)CCC(=O)N/N=C/c2cccnc2)c1
    9 | -5% | 1.3% | -6 | -11% | . | 12%
O=C(Nc1cccc(F)c1)/C(=C\c1ccco1)NC(=O)c1cccs1
    0 | 10% | 4.4% | -6 | 56µM* | 15 | -4%
C(=N\c1nc2ccccc2n1CCN1CCCCC1)/c1cccs1
    3 | -20% | -2.4% | 5 | 1% | 3.1 | 1%
O=c1cc(C(F)F)oc2c1ccc1ccccc12
    -12 | ? | ? | 28 | 14% | 1.2 | 3%
CCOC(=O)c1[nH]c(C)c(C(=O)N2CCc3ccccc32)c1C
    -3 | 0% | -3.4% | -11 | 13% | -2.1 | 30%[activator]
CN(C)c1ccc(C=Nc2cnn(C)c2C(N)=O)cc1
    -2 | 15% | 1.2% | 1 | -7% | -0.1 | -8%

High-throughput results from PubChem BioAssay.
